Assay outcomes (PubChem)
gsp ag – gsp mutant agonism. gsp mutant cells, cAMP HTRF, 30 min; control for the full effect not named in the record. Potency, µM (top dose mostly 76.9 µM), for inactives: at the highest dose activation (cAMP increase), most hits filed as activators. 340,000 compounds, 0.13% hits. AID 624287; active = well fitted activation curve with a large enough effect; inconclusive = small, poorly fitted or top-dose-only effect, or another doubt; inactive = no such curve, though single readings can be large or run the other way; cell line not stated here;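 note: phosphodiesterase inhibitor Ro 20-1724 added with compounds to block cAMP breakdown; potency is the fitted concentration of half-maximal effect; nearly all actives have a fitted effect of over 60% in size; about a fifth of the inactives were tested at one dose only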
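Cells stably selected in G418 were plated at 2000/well, grown 16-24 hr, then given compounds in DMSO with the PDE inhibitor […] (300 uM solution added) for 30 min at 37C; cAMP was read by HTRF.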
Sfp PPTase inh – blocks B. subtilis Sfp PPTase activity; Q9F4F7; Biochemical Sfp PPTase activity, qHTS; Potency, µM, for the others: max response, negative = inhibition, actives largely listed as inhibitors; 310,000 compounds, 3.5% hits; AID 1490; active = well fitted inhibition curve with a large enough effect; inconclusive = small, poorly fitted or top-dose-only effect, or another doubt; inactive = no such curve, though single readings can be large or run the other way;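 note: the enzyme is Sfp with the accession as filed and its product quenches rhodamine fluorescence; potency is the fitted concentration of half-maximal effect; 0% = enzyme reaction without inhibitor and -100% = no enzyme wells; top concentration of the series not given in the record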
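With Hepes-Na pH 7.6 buffer containing 10 mM MgCl2, Sfp (15 nM) modified BHQ-2-YbbR (12.5 uM) using rhodamine-CoA (5 uM). Two reads 30 minutes apart at 525/598 nm yielded each well's rate.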
TRPV1 PAM – enhances activation of the human vanilloid receptor TRPV1. TRPV1-expressing cells, Fluo-8 calcium influx, capsaicin EC20 potentiation; host cell line not named in the record; control for the full effect not named in the record. potentiation, % at 8.33 µM. 320,000 compounds, 0.02% hits; active means potentiation above 80%; inconclusive means 30% to 80%; inactive means below 30%; note: 0% is about no effect
Target sequence (Q8NER1 whole entry, looked up): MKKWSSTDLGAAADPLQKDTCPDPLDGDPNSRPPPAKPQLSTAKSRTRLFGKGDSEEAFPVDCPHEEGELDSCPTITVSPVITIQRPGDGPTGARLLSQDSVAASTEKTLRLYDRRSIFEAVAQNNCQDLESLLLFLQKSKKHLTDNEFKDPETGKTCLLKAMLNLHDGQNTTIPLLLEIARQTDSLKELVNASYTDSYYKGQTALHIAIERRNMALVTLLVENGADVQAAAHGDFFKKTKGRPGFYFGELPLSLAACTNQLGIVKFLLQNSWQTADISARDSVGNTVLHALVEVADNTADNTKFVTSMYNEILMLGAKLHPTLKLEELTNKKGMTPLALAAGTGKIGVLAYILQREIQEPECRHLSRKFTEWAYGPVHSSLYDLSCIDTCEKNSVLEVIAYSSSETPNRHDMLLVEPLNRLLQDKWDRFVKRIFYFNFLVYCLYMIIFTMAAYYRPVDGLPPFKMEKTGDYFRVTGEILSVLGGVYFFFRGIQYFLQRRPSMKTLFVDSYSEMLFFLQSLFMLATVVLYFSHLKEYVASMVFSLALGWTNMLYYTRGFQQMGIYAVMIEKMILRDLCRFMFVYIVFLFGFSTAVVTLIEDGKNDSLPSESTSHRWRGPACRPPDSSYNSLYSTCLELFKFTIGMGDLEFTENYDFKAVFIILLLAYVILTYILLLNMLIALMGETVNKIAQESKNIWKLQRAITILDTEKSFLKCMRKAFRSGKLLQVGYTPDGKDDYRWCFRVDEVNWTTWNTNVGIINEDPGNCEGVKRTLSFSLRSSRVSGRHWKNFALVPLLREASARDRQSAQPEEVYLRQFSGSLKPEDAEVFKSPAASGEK
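Cells expressing TRPV1 were dye-loaded with Fluo-8 and read kinetically: 10 s baseline, 3 min after compound (agonist portion), then 2 min after EC20 capsaicin (allosteric enhancer portion). Calcium-bound dye fluorescence at 480/520 nm.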
gsp antag – gsp mutant antagonism. gsp-mutant cells, cAMP HTRF, 30 min; control for the full effect not named in the record. Potency, µM (series often up to 76.9 µM), for the others: at the highest dose activity change, negative = inhibition, actives largely listed as inhibitors. 340,000 compounds, 0.4% hits. AID 624288; active = falling curve of any shape with a large fitted effect; inconclusive = falling curve, mostly with a smaller effect; inactive = flat or rising curve; cell line not stated here;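 note: intracellular cAMP measured with PDE inhibitor Ro 20-1724 present during compound exposure; potency is the fitted concentration of half-maximal effect; % is set by controls: 0 for no effect and ±100 for the full control effect; nearly all actives have a fitted effect of over 65% in size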
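Cells in G418 medium, seeded 16-24 h, 37C; buffer exchange to DPBS + 1 mM CaCl2, 0.5 mM MgCl2, 0.05% BSA; cpds in DMSO + […] (300 uM stock), 30 min 37C; HTRF cAMP detection.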
TRPML1 blocker – human mucolipin-1 channel inhibition; activity change, negative = inhibition, % (concentration not given with the values); Q9GZU1; TRPML1-inducible cells, Ca2+ dye fluorescence, FDSS; hits give low values; inhibition of EC80 agonist-evoked calcium signal; 390,000 compounds, 0.02% hits; in the data active means activity change below about -50%; inconclusive means about -30% to -50%; inactive means above about -30%;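 note: stimulus is agonist 54-4 at its EC80 concentration; % is set by controls: 0 for no effect and ±100 for the full control effect; the text of the record puts the active cut at -80%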
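Tet-induced TRPML1-DL cells loaded with Ca8 no-wash calcium dye were read kinetically on FDSS. Compound addition was followed by EC80 agonist 54-4 (4 uM final); inhibition was read over 110 s.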
Menin-MLL FL inh – inhibitors of human menin-MLL interaction, wild-type MLL peptide; Fluorescence polarization, fluorescein-MLL peptide displacement from menin; FP activity change, % at 61.4 µM; 290,000 tested, under 10 active; AID 1766; inconclusive = falling polarisation curve, or a change in total fluorescence; inactive = total fluorescence flat and polarisation flat or rising; no compound was filed as active; the % refers to the polarisation; negative = inhibition;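 note: % of control where 0% means no effect; inhibitors lower the polarisation; unlabelled MLL peptide was the positive control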
ClpP mod – qHTS Assay for Activators of ClpP; ATP-dependent Clp protease proteolytic subunit (Bacillus subtilis (strain 168)), P80244; purified B. subtilis ClpP, FRET peptide cleavage, 20 min; Potency, µM (doses to about 57.5 µM), inactives show at the highest dose activity change, negative = active; 340,000 compounds, 1.9% hits; AID 651965, 2013; active = well fitted falling curve with a large enough effect; inconclusive = small, poorly fitted or top-dose-only effect; inactive = no such curve, though single readings can be large or run the other way; note: potency is the fitted concentration of half-maximal effect; the source files actives as falling curves though it sought activators and does not explain the sign; nearly all actives have a fitted effect of over 65% in size; many hits overshoot -100%
Target sequence (P80244 whole entry, looked up): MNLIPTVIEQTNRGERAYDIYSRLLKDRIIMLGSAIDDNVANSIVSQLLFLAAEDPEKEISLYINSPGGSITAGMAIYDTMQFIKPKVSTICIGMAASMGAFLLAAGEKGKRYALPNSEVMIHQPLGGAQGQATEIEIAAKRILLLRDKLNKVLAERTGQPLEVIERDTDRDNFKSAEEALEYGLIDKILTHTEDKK
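Buffer: 100 mM Tris/HCl pH8, 100 mM KCl, 0.05% low protease BSA, 2.5% glycerol, 0.01% Tween-20. ClpP 10 microg/mL final; 20 min RT; delta FRET normalized to ADEP and DMSO controls.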
An asterisk follows results filed as active; ? = inconclusive; . = not tested or not shown; [ ] = another dose, or the depositor's remark.

SMILES	gsp ag	Sfp PPTase inh	TRPV1 PAM	gsp antag	TRPML1 blocker	Menin-MLL FL inh	ClpP mod
CCCC(C(=O)NC1CCCC1)N(CCN(CC)CC)C(=O)c1snc(C(N)=O)c1N (stereo not given)	1%	16%	3	12%	1	3.2	.
COc1ccc(NC(=O)C2CC(c3c(F)cccc3Cl)=NO2)cc1 (stereo not given)	-5%	24%	1	-14%	-6	2.7	1.7%
COc1ccc(C(C(=O)NC(C)(C)C)N(Cc2cccnc2)C(=O)CCC(=O)Nc2cc(C)on2)cc1 (stereo not given)	-3%[15.4 µM]	9%	10	-10%	10	6.1	0.6%
O=C(CNC(=O)c1ccccc1Cl)N/N=C/c1ccc2c(c1)OCO2	14%	6%	6	0%	-9	0.8	.
CCSc1nnc(NC(=O)C(C)(C)C)s1	-12%	1%	-9	0%	-18	2.5	-2.5%
C=C(C)c1cccc(C(C)(C)NC(=O)Nc2ccc(C(C)=O)cc2)c1	-5%	4%	-12	-25%	14	1.3	-5.4%
CCOc1ccccc1NC(=O)CCCN1C(=S)NC(C)(C)CC1C (stereo not given)	0%[15.4 µM]	9%	?	1%	1	1.9	-0.5%
COc1ccc(C(=O)N2CCCC(CNC(=O)c3ccccc3Cl)C2)o1 (stereo not given)	18%	0%	-7	-4%	-2	.	0.7%
COc1ccc(Cl)cc1NC(=O)c1cnc2sccn2c1=O	26%	19%	10	-2%	-11	3.3	-0.2%
CC[C@@]12C(=O)N(c3cccc(F)c3)C(=O)N1[C@H](c1ccc(F)cc1)[C@@H]1C(=O)N(C3CCCCC3)C(=O)[C@@H]12	.	-2%	15	1%	-14	-6.9	0.9%
O=C1CS(=O)CN1c1ccc(Oc2ccccc2)cc1 (stereo not given)	0%	0%	6	11%	1	-0.1	.
COc1cc2c(cc1OC)CN(CC(=O)Nc1ccc(Cl)c(S(=O)(=O)N(C)C)c1)CC2	.	9%	-10	.	.	-1.6	.
CCCCN(C(=O)c1cccc(S(=O)(=O)N2CC(C)OC(C)C2)c1)c1c(N)n(CCCC)c(=O)[nH]c1=O (stereo not given)	3%[15.4 µM]	11%	7	5%	-2	.	-3.5%
C=CCNC(=O)NC(=O)c1csc([N+](=O)[O-])c1	-5%[15.4 µM]	-6%	-18	11%	2	1.5	0.9%
CC1(C)Cc2c(c(N3CCCC3)[nH]c(=S)c2C#N)CO1	.	40µM*	0	.	.	2.4	.
Cc1ccc(-c2nnn(CC(=O)NCCC3=CCCCC3)n2)cc1	-50%	14%	-21	5%	-7	0.4	-0.8%
O=C(Nc1c2c(nc3c1CCC3)CCCC2)c1ccccn1	-50%[inhibitor]	-16%	-3	3%	1	4.2	1.2%
CCc1cc(C(=O)Cc2nc3ccccc3s2)c(O)cc1OCC(=O)O	-7%[15.4 µM]	-19%	7	-11%	6	4.5	.
O=C(Nc1cccnc1)/C(N=Nc1cccnc1)=C(\O)c1ccccc1	-15%[15.4 µM]	3%	0	13%	-7	6.5	0.2%
Cc1ccccc1NS(=O)(=O)c1cc(C(=O)Nc2cccnc2)ccc1C	-7%	10%	-5	-4%	21	.	1.1%
CCN(CCCNC(=O)CCNC(=O)Cn1ccc2ccccc2c1=O)c1ccccc1	2%	10%	1	2%[15.4 µM]	1	4.1	-7.9%
CCn1c(CCc2ccccc2)n[nH]c1=S	-10%[15.4 µM]	-8%	1	-2%	19	1.4	-0.2%
Cc1ccc(S(=O)(=O)N(C)CC(=O)OCc2nnc(-c3ccccc3)o2)cc1	12%	-6%	1	-17%	14	2.4	-1.6%
Cc1c(C(C)(C)O)[nH]c2ccc(C(F)(F)F)cc12	-2%	19%	-17	-15%	-10	-2.9	-21%
COc1ccc(CNC(=O)C2CC(c3ccc(F)cc3)=NO2)cc1 (stereo not given)	?	22%	7	8%	40	1.9	0.3%

Continued, overlapping the part above by 2 compounds.
SMILES	gsp ag	Sfp PPTase inh	TRPV1 PAM	gsp antag	TRPML1 blocker	Menin-MLL FL inh	ClpP mod
Cc1c(C(C)(C)O)[nH]c2ccc(C(F)(F)F)cc12	-2%	19%	-17	-15%	-10	-2.9	-21%
COc1ccc(CNC(=O)C2CC(c3ccc(F)cc3)=NO2)cc1 (stereo not given)	?	22%	7	8%	40	1.9	0.3%
CSC1=NSC2=NC(=O)/C(=C/c3coc4ccc(O)cc4c3=O)C(=N)N12	3%	-25%	8	-20%	4	.	-7.7%
CCCc1nnc(SCC(=O)N2CCCCC2)n1CC1CCCO1 (stereo not given)	?	17%	0	1%	12	5.6	0.6%
Cc1ccc(-c2nn(CC(=O)O)c(=O)c3ccccc23)cc1	-83%[inhibitor]	4%	19	0%	29	1.4	-4.8%
COC(=O)C1=C[C@@H](C(=O)OC)[C@@H]2C3=C(C(=O)[C@@]2(C)NC(=O)c2ccccc2)[C@H](C)n2c(=O)n(C)c(=O)n2[C@@H]3C1	.	.	.	13%	11	.	-0.1%
Cc1ccc2c(c1)C1CN(C)CCC1N2C(=S)NC(=O)c1ccc(Br)cc1 (stereo not given)	2%	-3%	24	4%	-18	1.7	-1.9%
CCCn1c2c(c(O)c(C(=O)Nc3ccc(OC)cc3)c1=O)CCCC2	-17%	-7%	-1	-13%	-6	5.5	28µM*
Cc1sc(NC(=O)c2ccc(Br)s2)c(C(N)=O)c1C	-19%	-6%	-16	-19%	-1	3.4	7.9%
Cc1ccc(C(=O)Nc2ccc3c(c2)OCO3)cc1S(=O)(=O)N1CCOCC1	-26%	5%	-20	1%	15	.	-25%
CCOC(=O)c1ccc(Nc2cc(C)nc3ncnn23)cc1	?	-15%	?	-5%	7	?	-5.1%
CC(=O)Nc1ccc(NS(=O)(=O)C(F)(F)F)cc1	6%	9%	4	0%	19	-0.8	-2.1%
CCOC(=O)C(=O)Nc1ccccc1C#N	7%	9%	11	4%	-6	0.3	0.0%
O=C(c1ccc(NC(=S)NCc2ccco2)cc1)N1CCOCC1	?	14%	7	6%	-14	5.2	-4.7%
Cc1ccc(S(=O)(=O)Nc2cccc(C(=O)NCCCn3ccnc3)c2)cc1F	-29%	.	24	-14%	-17	.	1.7%
CC(=O)Cc1nsc(Nc2ccc(C)cc2)n1	19%[15.4 µM]	26%	0	0%	10	0.6	0.0%
CC(C)c1ccc(NC(=O)c2snc3ccc(Cl)cc23)cc1	18%	-1%	-31	28µM*	-3	3.7	-7.2%
CC1CCc2c(sc(NC(=O)C3c4ccccc4Oc4ccccc43)c2C(N)=O)C1 (stereo not given)	20%	-12%	2	-25%	18	3.6	?
COc1ccccc1NS(=O)(=O)c1cc(NC(=O)/C=C/c2cccs2)ccc1N1CCOCC1	-26%	-5%	-27	1%	-7	0.8	-5.6%
COc1ccc(CNC2C[C@H]3CCCC(=O)N4CC[C@@H](C2)[C@@H]34)cc1 (stereo not given in full)	.	9%	.	0%	8	-3.2[94.6 µM]	-3.7%
O=C(CC(C(=O)O)c1ccccc1)c1cccs1 (stereo not given)	8%[15.4 µM]	16%	-3	-3%	-10	-0.2	0.1%
CCc1nn(CC(=O)NCCC(C)C)c(=O)c2cc3c(OC)cccc3n12	8%	3%	4	-1%	23	-7.9	4.1%
CCn1c(SCC(=O)N=Nc2c(O)[nH]c3ccccc23)nc2ccccc21	-40%[inhibitor]	-15%	26	?	4	3.4	1.7%
COc1ccc(C2CC2/C(C)=N/OC(=O)c2cccs2)cc1 (stereo not given)	-35%[inhibitor]	-12%	-9	2%	-12	-5.1	-5.2%
COc1cc(/C=C2\SC(=O)NC2=O)ccc1OCc1ccc(Cl)nc1	1%	-9%	22	-25%	29	-0.8	.
CC(SCc1ccccc1)C(=O)N/N=C/c1cccs1 (stereo not given)	0%	7%	-8	7%	10	9.6	-3.1%
CC(=O)Nc1ccc(NC(=S)Nc2ccc(F)cc2)cc1	23%[15.4 µM]	0%	-4	3%	38	-1.7	.

Reformatted as labelled records: entries from further up
Compound: Cc1ccc(S(=O)(=O)N(C)CC(=O)OCc2nnc(-c3ccccc3)o2)cc1
- gsp ag: 12%
- Sfp PPTase inh: -6%
- TRPV1 PAM: 1
- gsp antag: -17%
- TRPML1 blocker: 14
- Menin-MLL FL inh: 2.4
- ClpP mod: -1.6%
Compound: Cc1c(C(C)(C)O)[nH]c2ccc(C(F)(F)F)cc12
- gsp ag: -2%
- Sfp PPTase inh: 19%
- TRPV1 PAM: -17
- gsp antag: -15%
- TRPML1 blocker: -10
- Menin-MLL FL inh: -2.9
- ClpP mod: -21%
Compound: COc1ccc(CNC(=O)C2CC(c3ccc(F)cc3)=NO2)cc1 (stereo not given)
- gsp ag: ?
- Sfp PPTase inh: 22%
- TRPV1 PAM: 7
- gsp antag: 8%
- TRPML1 blocker: 40
- Menin-MLL FL inh: 1.9
- ClpP mod: 0.3%
Compound: CSC1=NSC2=NC(=O)/C(=C/c3coc4ccc(O)cc4c3=O)C(=N)N12
- gsp ag: 3%
- Sfp PPTase inh: -25%
- TRPV1 PAM: 8
- gsp antag: -20%
- TRPML1 blocker: 4
- Menin-MLL FL inh: .
- ClpP mod: -7.7%

Going on with the list.
SMILES	gsp ag	Sfp PPTase inh	TRPV1 PAM	gsp antag	TRPML1 blocker	Menin-MLL FL inh	ClpP mod
COC(=O)c1cc(CSc2nc3ccccc3[nH]2)oc1C	1%	7%	-16	2%	18	1.7	-1.7%
O=C(NCCc1ccccn1)C1CCN(S(=O)(=O)c2ccc(Cl)cc2)CC1	-9%[15.4 µM]	10%	7	13%	-4	-0.5	-0.2%
Cn1c2ccccc2c2ccc3c(c21)C(=O)C=CC3=O	-11%	.	.	-2%	-7	.	-4.3%
COc1ccc(CNC(=O)c2cc3c(s2)CS(=O)C3)cc1 (stereo not given)	5%	8%	10	12%	4	-0.9	-1.2%
C[C@]12c3[nH]c4cc(-c5ccco5)ccc4c3CCN1C(=O)[C@@H](CC(=O)NCC13CC4CC(CC(C4)C1)C3)C[C@@H]2C(=O)N1CCOCC1	.	.	.	-17%	-12	.	4.4%
COc1cc2c(cc1OC)C(c1ccc(-c3ccccc3Cl)o1)=NCC2	?	-18%	-8	1%	-3	1.0	-18%
